MLL AF4-AF9 inh = inhibitors of AF4 peptide binding to AF9, primary screen, biochemical, AlphaScreen, biotin-AF4 peptide, FLAG-AF9, single point; Protein AF-9 (Homo sapiens), P42568; AID 651704, 2012; hit rate 0.47% among 350,000; inhibition, % at 10 µM;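 active = every replicate reaching a set inhibition limit, whatever the replicate mean, cut at about 25% in these data; inconclusive = mean inhibition reaches that limit but some replicates miss it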;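 note: 0% = plate neutral control median and 100% = total signal loss; the record names both 10 and 1 µM as test concentration; the first replicate is given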
Target sequence (P42568 whole entry, looked up): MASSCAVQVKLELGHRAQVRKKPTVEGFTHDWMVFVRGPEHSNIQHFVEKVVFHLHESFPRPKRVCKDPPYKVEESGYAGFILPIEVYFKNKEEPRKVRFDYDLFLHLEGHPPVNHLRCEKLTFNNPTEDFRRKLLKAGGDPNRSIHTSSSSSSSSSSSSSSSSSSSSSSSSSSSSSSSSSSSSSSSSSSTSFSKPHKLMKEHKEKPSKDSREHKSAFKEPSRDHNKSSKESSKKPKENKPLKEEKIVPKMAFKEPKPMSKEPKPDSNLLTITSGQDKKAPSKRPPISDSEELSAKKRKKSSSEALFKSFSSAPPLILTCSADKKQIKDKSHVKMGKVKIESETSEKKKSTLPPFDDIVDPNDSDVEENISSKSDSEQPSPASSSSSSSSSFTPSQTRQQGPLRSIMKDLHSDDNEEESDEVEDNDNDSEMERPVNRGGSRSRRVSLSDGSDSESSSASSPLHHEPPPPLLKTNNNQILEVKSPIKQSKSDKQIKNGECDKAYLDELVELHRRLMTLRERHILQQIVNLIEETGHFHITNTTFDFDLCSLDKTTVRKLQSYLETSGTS
Calb FLC = C. albicans growth inhibition with fluconazole, primary screen, CaCi-2 strain, Alamar Blue fluorescence; C. albicans CaCi-2 (fluconazole-resistant clinical isolate) + fluconazole, 48 h; growth inhibition, % (no concentration beside the values); hit rate 0.57% among 300,000; AID 1979, 2009;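 active = most replicates above 75%; inconclusive = exactly half above 75%; inactive = most below 75%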;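 note: all wells also contain fluconazole at 8 µg/ml as a sub-toxic cotreatment; 0% = median of DMSO wells and 100% = median of geldanamycin control wells; wells of about 8 µL received 7.5 nL stock; the first replicate is given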
Beta apoptosis = inhibitors of cytokine-induced beta cell apoptosis, primary screen, luminescence. INS-1E cytokine-induced death, ATP luminescence, 48 h; percent of positive-control rescue, neutral wells zero. protection from apoptosis, % (concentration not given with the values). hit rate 0.8% among 300,000. AID 435005, 2010;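 active = all replicates at 75% or more, or half of them and the mean; inconclusive = half reach 75% but not the mean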;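 note: 0% = cytokine-treated negative control wells and 100% = positive control rescue; higher means more ATP so stronger rescue from cytokine killing; wells of about 40 µL received 100 nL stock; the first replicate is given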
ALR inh = inhibitors of human ALR sulfhydryl oxidase, primary screen, biochemical, H2O2 detection, HRP-luminol luminescence, single point | FAD-linked sulfhydryl oxidase ALR (Homo sapiens), P55789 | purified ALR, DTT oxidation | inhibition, % (no concentration beside the values) | hit rate 3.8% among 290,000;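 active = mean and each replicate at 75% or more; inconclusive = only one of the two met; inactive = neither met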;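 note: stock transfer was 7.5 nL into about 7.5 µL; 0% = neutral wells and 100% = wells with inactivated enzyme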
Target sequence (P55789 whole entry, looked up): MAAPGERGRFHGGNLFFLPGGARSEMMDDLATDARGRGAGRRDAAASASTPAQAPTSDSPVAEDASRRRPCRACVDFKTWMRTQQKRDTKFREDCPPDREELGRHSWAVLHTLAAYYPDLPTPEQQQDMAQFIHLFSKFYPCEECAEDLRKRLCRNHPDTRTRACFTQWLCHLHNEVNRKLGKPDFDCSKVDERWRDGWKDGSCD
RanGTP-Impb inh = inhibitors of RanGTP-importin-beta interaction, primary screen, biochemical, FRET, CFP-Ran, YFP-importin-beta, homogeneous | Ran GTPase (GTP-bound) - importin-beta complex | cell-free CFP-Ran/YFP-importin-beta FRET ratio | inhibition, % (test concentration not listed) | hit rate 1.1% among 300,000 | AID 2216, 2009;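 active = most replicates above 15%; inconclusive = exactly half above 15%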;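 note: 0% = DMSO wells and 100% = Ran loaded with GDP instead of GTP; wells of about 40 µL received 100 nL stock; the first replicate is given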
rRNA inh HTS = reduced GFP signal of wild-type E. coli, primary screen, bacterial rRNA inhibitor project, GFP/RFP fluorescence, OD600, single point. AID 720706, 2013. GFP signal change (wild-type ribosome), % (test concentration not listed). hit rate 1.6% among 350,000. E. coli WT GFP vs humanized-ribosome RFP mutants, 24 h; hits give low values; DMSO median 0, no signal -100;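 active = significant combined selectivity score with lowered wild-type GFP, culture density cut under 30%, mutant RFP and density less affected; inactive = any of these conditions unmet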; note: one replicate is shown; some compounds called inactive have numbers as strong as hits
FGF22 binding = binders of human FGF22 protein, primary screen, FGF22 synaptogenesis inhibitor project, biophysical, thermal shift, single point. calls only at 9.99 µM. recombinant FGF22 thermal shift, SYPRO orange fluorescence; percent of sucrose octasulfate shift, DMSO zero. AID 651658, 2012. hit rate 1.5% among 340,000. Fibroblast growth factor 22 (Homo sapiens), Q9HCT0;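 active = melting point raised past a set limit in the mean and every replicate; inconclusive = no clear call; three in four hits are not shown here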
Target sequence (Q9HCT0 whole entry, looked up): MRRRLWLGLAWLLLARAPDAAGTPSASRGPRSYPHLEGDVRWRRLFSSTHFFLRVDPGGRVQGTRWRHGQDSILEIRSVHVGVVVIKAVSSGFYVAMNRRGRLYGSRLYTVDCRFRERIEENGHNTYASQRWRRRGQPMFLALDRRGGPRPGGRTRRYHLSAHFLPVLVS
T cruzi repl = inhibitors of intracellular T. cruzi growth, primary screen, luminescence, NIH3T3 host cells. T. cruzi beta-gal in NIH3T3, 90 h. inhibition, % (test concentration not listed). hit rate 1.4% among 300,000;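 active = mean inhibition across valid replicates above about 55%, limit read from the data; inconclusive = mean below that limit but half or more replicates reach it; inactive = mean below it, under half of replicates reach it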;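 note: signal also drops with host cell toxicity which is not excluded here; 0% = plate median of DMSO wells and 100% = zero luminescence signal; higher percent means less beta-gal luminescence so fewer parasites; stock transfer was 50 nL into about 50 µL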
rRNA inh HTS OD600 = second read-out of rRNA inh HTS, no call of its own (marks repeat the call); OD600 change, %; measured here: OD600 growth;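 optical density of the mix in the first replicate; 0 = DMSO median and -100 = no signal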
rRNA inh HTS RFP = second read-out of rRNA inh HTS, no call of its own (marks repeat the call); RFP signal change, %; measured here: RFP humanized mutant strains;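 first replicate; 0 = DMSO median and -100 = no signal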
Numbers without * were called inactive. An excerpt (hit frequency here may not be typical).

COc1ccc2c(c1)OC[C@H]1[C@H]2N2C(=O)c3ccccc3NC(=O)[C@@]2(C)[C@H]1c1ccccc1 was read as MLL AF4-AF9 inh -0.7, Beta apoptosis 4, ALR inh 4, rRNA inh HTS -1, FGF22 binding inactive, rRNA inh HTS OD600 -4 and rRNA inh HTS RFP -4.8.
`O=C(C1=C[C@@H](c2ccc(C(F)(F)F)cc2)C[C@@H](OCCCCO)O1)N1CCN(Cc2ccccc2)CC1` gave MLL AF4-AF9 inh -3.9, Calb FLC -1, Beta apoptosis 116*, RanGTP-Impb inh 2.6, rRNA inh HTS 3, FGF22 binding inactive, T cruzi repl 18, rRNA inh HTS OD600 5 and rRNA inh HTS RFP -0.8.
Cc1ccc(S(=O)(=O)Cn2nnnc2CN(Cc2ccco2)CC2CCCO2)cc1 (stereo not given) was read as Calb FLC -2, Beta apoptosis 0, ALR inh 0, RanGTP-Impb inh -0.8 and T cruzi repl 11.
Screening Cc1n[nH]c(=O)c2c(NC(=O)COC(=O)COc3cccc(Br)c3)oc(C)c12 returned MLL AF4-AF9 inh -2.3, Calb FLC 8, Beta apoptosis -6, ALR inh -5, RanGTP-Impb inh 0.9, rRNA inh HTS 12, T cruzi repl -4, rRNA inh HTS OD600 6 and rRNA inh HTS RFP -3.2.
For O=C(CSc1nc2ccccc2nc1N1CCCCC1)N1CCN(c2ccccc2)CC1 the results were MLL AF4-AF9 inh 9.5, Calb FLC 9, Beta apoptosis 5, ALR inh -3, RanGTP-Impb inh 2.3, rRNA inh HTS 1, FGF22 binding inactive, T cruzi repl 19, rRNA inh HTS OD600 -16 and rRNA inh HTS RFP -5.9.
Screening Cc1ccc(S(=O)(=O)N2CCOCC2)cc1C(=O)Nc1ccncc1 returned MLL AF4-AF9 inh 2.0, Beta apoptosis -6, ALR inh 7, rRNA inh HTS 10, FGF22 binding inactive, rRNA inh HTS OD600 9 and rRNA inh HTS RFP -0.4.
CCN(C(=O)C1CCCN(c2nc(-c3ccc(OC)cc3)no2)C1)c1ccccc1F (stereo not given) was read as MLL AF4-AF9 inh -2.1, Calb FLC 3, Beta apoptosis -6, ALR inh 1, RanGTP-Impb inh inconclusive, rRNA inh HTS -6, FGF22 binding inactive, T cruzi repl 15, rRNA inh HTS OD600 -11 and rRNA inh HTS RFP -0.3.
Screening COc1ccccc1OCCC(=O)OCC(=O)Nc1ccc2c(c1)OCCO2 returned MLL AF4-AF9 inh -1.2, Beta apoptosis -1, ALR inh 0, rRNA inh HTS 9, FGF22 binding inactive, rRNA inh HTS OD600 9 and rRNA inh HTS RFP 1.4.
`O=C(NCc1ccncc1)c1ccc(NS(=O)(=O)c2cccc([N+](=O)[O-])c2)cc1` gave MLL AF4-AF9 inh 17, Calb FLC -11, Beta apoptosis -1, ALR inh -18, RanGTP-Impb inh 3.3, rRNA inh HTS -11, FGF22 binding inactive, T cruzi repl -12, rRNA inh HTS OD600 0 and rRNA inh HTS RFP -4.3.
`CCCOc1ccc(/C(O)=C2/C(=O)C(=O)N(CCCn3ccnc3)C2c2cccs2)cc1` (stereo not given) gave MLL AF4-AF9 inh -0.2, Calb FLC -10, Beta apoptosis -1, ALR inh 4, RanGTP-Impb inh 7.1, rRNA inh HTS 6, FGF22 binding inactive, T cruzi repl -8, rRNA inh HTS OD600 7 and rRNA inh HTS RFP -2.4.
Cc1ccc(NC(=O)COC(=O)Cc2csc(-c3cccc(F)c3)n2)cc1C was read as Calb FLC -3, Beta apoptosis -6, ALR inh -15, RanGTP-Impb inh -3.7 and T cruzi repl -6.
Screening COC(=O)c1ccc(C(=O)N2CCCC(CNC(=O)c3ccc(F)cc3)C2)cc1 (stereo not given) returned MLL AF4-AF9 inh 0.4, Calb FLC -1, Beta apoptosis -1, ALR inh 0, RanGTP-Impb inh -0.4, rRNA inh HTS 4, FGF22 binding inactive, T cruzi repl -20, rRNA inh HTS OD600 7 and rRNA inh HTS RFP -0.1.
`Cc1ccc(C(=O)OCC(=O)N2CCOCC2)cc1` gave MLL AF4-AF9 inh -1.2, Calb FLC -6, Beta apoptosis 0, ALR inh -2, RanGTP-Impb inh 1.0, rRNA inh HTS 6, FGF22 binding inactive, T cruzi repl 3, rRNA inh HTS OD600 7 and rRNA inh HTS RFP 1.0.
Screening COc1ccc(NS(=O)(=O)c2ccc(C(=O)Nc3c(C)n(C)n(-c4ccccc4)c3=O)cc2)cc1 returned MLL AF4-AF9 inh -0.6, Beta apoptosis -5, ALR inh 0, rRNA inh HTS -2, FGF22 binding inactive, rRNA inh HTS OD600 3 and rRNA inh HTS RFP 5.6.
`CCn1c(SCc2nc3scc(-c4ccccc4)c3c(=O)[nH]2)nnc1-c1cccs1` gave Calb FLC 5, ALR inh -3, RanGTP-Impb inh 7.3 and T cruzi repl 14.

Among those listed so far, these have a furan ring, fused or not:
Cc1ccc(S(=O)(=O)Cn2nnnc2CN(Cc2ccco2)CC2CCCO2)cc1 (stereo not given) was read as Calb FLC -2, Beta apoptosis 0, ALR inh 0, RanGTP-Impb inh -0.8 and T cruzi repl 11.
Screening Cc1n[nH]c(=O)c2c(NC(=O)COC(=O)COc3cccc(Br)c3)oc(C)c12 returned MLL AF4-AF9 inh -2.3, Calb FLC 8, Beta apoptosis -6, ALR inh -5, RanGTP-Impb inh 0.9, rRNA inh HTS 12, T cruzi repl -4, rRNA inh HTS OD600 6 and rRNA inh HTS RFP -3.2.

Back to the main list; the 2 compounds before the break are reprinted first.
Screening COc1ccc(NS(=O)(=O)c2ccc(C(=O)Nc3c(C)n(C)n(-c4ccccc4)c3=O)cc2)cc1 returned MLL AF4-AF9 inh -0.6, Beta apoptosis -5, ALR inh 0, rRNA inh HTS -2, FGF22 binding inactive, rRNA inh HTS OD600 3 and rRNA inh HTS RFP 5.6.
`CCn1c(SCc2nc3scc(-c4ccccc4)c3c(=O)[nH]2)nnc1-c1cccs1` gave Calb FLC 5, ALR inh -3, RanGTP-Impb inh 7.3 and T cruzi repl 14.
For Clc1ccc(Nc2ccc(NCc3ccccc3)nn2)cc1 the results were MLL AF4-AF9 inh 1.8, Calb FLC -2, Beta apoptosis 3, ALR inh 19, RanGTP-Impb inh -1.2, rRNA inh HTS -56, FGF22 binding active, T cruzi repl 42, rRNA inh HTS OD600 -77 and rRNA inh HTS RFP -23.
CN(Cc1ccccc1)S(=O)(=O)c1cn(C)cn1 was read as MLL AF4-AF9 inh -0.6, Calb FLC -3, Beta apoptosis -5, ALR inh -3, RanGTP-Impb inh -4.1, rRNA inh HTS 5, FGF22 binding inactive, T cruzi repl -1, rRNA inh HTS OD600 8 and rRNA inh HTS RFP 1.7.
Screening COc1ccc(CC(=O)NNC(=O)COc2ccc3ccccc3c2)cc1 returned MLL AF4-AF9 inh 0.9, Calb FLC -5, Beta apoptosis -2, RanGTP-Impb inh 0.1, rRNA inh HTS 3, FGF22 binding inactive, T cruzi repl 0, rRNA inh HTS OD600 -3 and rRNA inh HTS RFP -5.4.
Screening CN(C(=O)COC(=O)/C=C/c1ccccc1[N+](=O)[O-])c1ccccc1 returned MLL AF4-AF9 inh 1.8, Calb FLC 7, Beta apoptosis -15, ALR inh -4, RanGTP-Impb inh -2.6, rRNA inh HTS -15, FGF22 binding inactive, T cruzi repl -18, rRNA inh HTS OD600 -3 and rRNA inh HTS RFP 4.4.
For CCn1[nH]c(=O)c(=Nc2c(C)n(C)n(-c3ccccc3)c2=O)cc1-c1ccc(Cl)cc1 the results were Calb FLC 6, Beta apoptosis -6, ALR inh -39, RanGTP-Impb inh 0.7 and T cruzi repl -4.
For O=C(c1cccs1)N1CCN=C1SCc1ccc(Cl)cc1 the results were MLL AF4-AF9 inh -2.6, Calb FLC -10, Beta apoptosis -13, ALR inh inconclusive, RanGTP-Impb inh 2.7, rRNA inh HTS 0, FGF22 binding inactive, T cruzi repl 17, rRNA inh HTS OD600 8 and rRNA inh HTS RFP -2.3.
For O=c1c2c3c(sc2ncn1/N=C/c1ccc(Br)o1)CCCC3 the results were Calb FLC -8, Beta apoptosis 3, ALR inh 2, RanGTP-Impb inh 1.3 and T cruzi repl 5.
O=C1CCCN1CCCNCC(=O)N1c2ccccc2Sc2ccccc21 was read as Calb FLC 2, Beta apoptosis -2, ALR inh -12, RanGTP-Impb inh -4.0 and T cruzi repl 0.
NC(=O)c1oc2ccccc2c1NC(=O)Cc1ccccc1 was read as MLL AF4-AF9 inh 1.8, Calb FLC 0, ALR inh -7, RanGTP-Impb inh 3.7, rRNA inh HTS -2, T cruzi repl -5, rRNA inh HTS OD600 -5 and rRNA inh HTS RFP -6.0.
For O=C(NCc1ccccc1Cl)C1CCC(CNc2nc(=S)[nH]c3ccccc23)CC1 (stereo not given) the results were MLL AF4-AF9 inh -1.8, Calb FLC -29, Beta apoptosis 20, RanGTP-Impb inh 3.3, rRNA inh HTS 1, FGF22 binding inactive, T cruzi repl 3, rRNA inh HTS OD600 0 and rRNA inh HTS RFP -1.2.
For CCOC(=O)c1c(C)[nH]c(C(=O)OCC(=O)NC(C)(C)C)c1C the results were MLL AF4-AF9 inh -0.7, Calb FLC -6, Beta apoptosis 86*, ALR inh 5, RanGTP-Impb inh -1.9, rRNA inh HTS -16, FGF22 binding inactive, T cruzi repl 1, rRNA inh HTS OD600 -11 and rRNA inh HTS RFP -3.6.
Screening CC(C)(C)NC(=O)CSc1nc2ccc(NC(=O)CSc3nnc(N)s3)cc2s1 returned MLL AF4-AF9 inh -3.8, Calb FLC -1, Beta apoptosis 6, ALR inh 61, RanGTP-Impb inh 1.5, rRNA inh HTS -10, FGF22 binding inactive, T cruzi repl -16, rRNA inh HTS OD600 1 and rRNA inh HTS RFP -7.8.
Nn1c(SCc2nc3ccccn3c2Br)nnc1-c1cccnc1 was read as Calb FLC -4, Beta apoptosis 4, ALR inh -15, RanGTP-Impb inh 1.3 and T cruzi repl -8.
Screening Cc1[nH]c2c(Cl)cccc2c(=O)c1CN1CCCC1 returned Calb FLC -1, Beta apoptosis -3, ALR inh -3, RanGTP-Impb inh 4.9 and T cruzi repl 49.
`COc1ccccc1N(C)S(=O)(=O)c1ccc(C(=O)NC2=NCCS2)cc1` gave Calb FLC 5, Beta apoptosis -7, ALR inh -11, RanGTP-Impb inh inconclusive and T cruzi repl -1.
Screening COc1ccc(Br)cc1CN(C)C(C)C(=O)Nc1cc([N+](=O)[O-])ccc1OC (stereo not given) returned MLL AF4-AF9 inh 5.7, Calb FLC 0, Beta apoptosis 14, ALR inh 0, RanGTP-Impb inh -1.7, rRNA inh HTS 1, FGF22 binding inactive, T cruzi repl 17, rRNA inh HTS OD600 8 and rRNA inh HTS RFP -4.4.

From PubChem BioAssay
